Screening results deposited in PubChem by National Center for Advancing Translational Sciences (NCATS).
gsp antag – qHTS for Antagonists of gsp, the Etiologic Mutation Responsible for Fibrous Dysplasia/McCune-Albright Syndrome: qHTS | gsp-mutant cells, cAMP HTRF, 30 min; control for the full effect not named in the record | Potency, µM (top dose mostly 76.9 µM), for inactives: at the highest dose activity change, negative = inhibition, usual class: inhibitors | 0.4% of 340,000 active | AID 624288, 2012; active = falling curve of any shape with a large fitted effect; inconclusive = falling curve, mostly with a smaller effect; inactive = flat or rising curve; cell line not stated here;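 note: intracellular cAMP measured with PDE inhibitor Ro 20-1724 present during compound exposure; potency is the fitted concentration of half-maximal effect; % is set by controls: 0 for no effect and ±100 for the full control effect; nearly all actives have a fitted effect of over 65% in size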
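Measurement of cellular cAMP by homogeneous time-resolved fluorescence following a 30 min compound exposure at 37C. The PDE inhibitor […] was present throughout; the assay buffer was DPBS with 0.05% BSA and 0.005% Tween 20.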
Menin-MLL FL inh – qHTS Assay for Inhibitors Targeting the Menin-MLL Interaction in MLL Related Leukemias: Competition With Fluorescein Labeled MLL-derived Peptide. FP activity change, % at 61.4 µM. Fluorescence polarization, fluorescein-MLL peptide displacement from menin. AID 1766, 2009. 290,000 tested, under 10 active; inconclusive = falling polarisation curve, or a change in total fluorescence; inactive = total fluorescence flat and polarisation flat or rising; no compound was filed as active; the % refers to the polarisation; negative = inhibition;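 note: % of control where 0% means no effect; inhibitors lower the polarisation; unlabelled MLL peptide was the positive control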
Sfp PPTase inh – qHTS Assay for Inhibitors of Bacillus subtilis Sfp phosphopantetheinyl transferase (PPTase) | Potency, µM, inactives show max response, negative = inhibition, usual class: inhibitors | Biochemical Sfp PPTase activity, qHTS | 4'-phosphopantetheinyl transferase ffp (Bacillus subtilis), Q9F4F7 | 3.5% of 310,000 active; active = well fitted inhibition curve with a large enough effect; inconclusive = small, poorly fitted or top-dose-only effect, or another doubt; inactive = no such curve, though single readings can be large or run the other way;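 note: the enzyme is Sfp with the accession as filed and its product quenches rhodamine fluorescence; potency is the fitted concentration of half-maximal effect; 0% = enzyme reaction without inhibitor and -100% = no enzyme wells; top concentration of the series not given in the record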
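Compounds were incubated with enzyme (final 15 nM) for 15 min at room temperature before substrate addition started the reaction. Fluorescence at 525 nm excitation, 598 nm emission was recorded immediately and after 30 minutes.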
ClpP mod – qHTS Assay for Activators of ClpP; ATP-dependent Clp protease proteolytic subunit (Bacillus subtilis (strain 168)), P80244; purified B. subtilis ClpP, FRET peptide cleavage, 20 min; Potency, µM (doses to about 57.5 µM), for inactives: at the top dose activity change, negative = active; 1.9% of 340,000 active; AID 651965, 2013; active = well fitted falling curve with a large enough effect; inconclusive = small, poorly fitted or top-dose-only effect; inactive = no such curve, though single readings can be large or run the other way; note: potency is the fitted concentration of half-maximal effect; the source files actives as falling curves though it sought activators and does not explain the sign; nearly all actives have a fitted effect of over 65% in size; many hits overshoot -100%
Target sequence (P80244 whole entry, looked up): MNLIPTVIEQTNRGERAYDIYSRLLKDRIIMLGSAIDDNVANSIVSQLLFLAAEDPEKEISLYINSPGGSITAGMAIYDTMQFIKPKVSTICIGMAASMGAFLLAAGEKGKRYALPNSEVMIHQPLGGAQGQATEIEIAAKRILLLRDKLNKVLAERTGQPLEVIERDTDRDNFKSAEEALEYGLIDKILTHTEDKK
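FRET quenching reversal measured ClpP activation: 10 microg/mL B. subtilis ClpP at pH 8 with the FRET-FV decapeptide, read at 430 nm after 320 nm excitation. The 20-min minus 0-min signal was scaled between DMSO/no-enzyme wells and ADEP (5.8 microM final).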
TRPV1 PAM – HTS Assay for Compounds that Act as Potentiators of the Vanilloid Receptor 1; Transient receptor potential cation channel subfamily V member 1 (Homo sapiens), Q8NER1; TRPV1-expressing cells, Fluo-8 calcium influx, capsaicin EC20 potentiation; host cell line not named in the record; control for the full effect not named in the record; potentiation, % at 8.33 µM; 0.02% of 320,000 active; active means potentiation above 80%; inconclusive means 30% to 80%; inactive means below 30%; note: 0% is about no effect
Target sequence (Q8NER1 whole entry, looked up): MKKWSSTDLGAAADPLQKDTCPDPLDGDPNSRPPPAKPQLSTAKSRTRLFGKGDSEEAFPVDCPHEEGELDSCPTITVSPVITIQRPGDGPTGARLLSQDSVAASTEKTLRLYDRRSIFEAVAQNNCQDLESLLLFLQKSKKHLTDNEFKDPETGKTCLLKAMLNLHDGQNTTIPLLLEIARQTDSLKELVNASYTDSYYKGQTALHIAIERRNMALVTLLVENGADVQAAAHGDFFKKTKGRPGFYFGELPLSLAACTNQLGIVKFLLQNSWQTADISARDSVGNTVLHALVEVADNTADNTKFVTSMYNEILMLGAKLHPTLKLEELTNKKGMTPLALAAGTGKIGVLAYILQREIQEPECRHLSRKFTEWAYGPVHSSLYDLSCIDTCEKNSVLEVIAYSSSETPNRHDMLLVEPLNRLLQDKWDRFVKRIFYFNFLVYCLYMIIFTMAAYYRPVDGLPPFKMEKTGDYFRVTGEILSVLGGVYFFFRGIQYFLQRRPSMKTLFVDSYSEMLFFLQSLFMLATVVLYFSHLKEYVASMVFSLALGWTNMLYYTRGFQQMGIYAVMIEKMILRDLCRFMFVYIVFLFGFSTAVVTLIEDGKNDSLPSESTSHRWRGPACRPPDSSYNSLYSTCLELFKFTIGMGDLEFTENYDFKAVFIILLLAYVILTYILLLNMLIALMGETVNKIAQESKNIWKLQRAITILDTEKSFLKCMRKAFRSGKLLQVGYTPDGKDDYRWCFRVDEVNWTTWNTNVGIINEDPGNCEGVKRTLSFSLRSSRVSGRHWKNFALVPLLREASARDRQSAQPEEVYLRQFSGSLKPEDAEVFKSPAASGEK
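Cells expressing TRPV1 were dye-loaded with Fluo-8 and read kinetically: 10 s baseline, 3 min after compound (agonist portion), then 2 min after EC20 capsaicin (allosteric enhancer portion). Calcium-bound dye fluorescence at 480/520 nm.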
CtBP-E1A blk – qHTS Assay for Inhibitors of the CtBP/E1A Interaction. AID 651724, 2012. AlphaScreen GST-E1A/His-CtBP binding, 1536-well; hits give low values; control for the full effect not named in the record. 0.49% of 340,000 active. activity change, % (concentration not given with the values); in the data active means activity change below about -65%; inconclusive means about -30% to -65%; inactive means above about -30%; note: % is set by controls: 0 for no effect and ±100 for the full control effect
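AlphaScreen with 125 nM GST-E1A and 125 nM His-CtBP (5X stocks) in Tris pH 8.0, 300 mM NaCl, BSA, Tween 20, TCEP. Compounds preincubated 2 h at 37 deg C, then glutathione donor/nickel acceptor beads added for 1 h at 37 deg C in dark.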
gsp ag – qHTS for Agonist of gsp, the Etiologic Mutation Responsible for Fibrous Dysplasia/McCune-Albright Syndrome: qHTS | AID 624287, 2012 | Potency, µM (titrated, usually from 76.9 µM), inactives show top-dose activation (cAMP increase), usual class: activators | gsp mutant cells, cAMP HTRF, 30 min; control for the full effect not named in the record | 0.13% of 340,000 active; active = well fitted activation curve with a large enough effect; inconclusive = small, poorly fitted or top-dose-only effect, or another doubt; inactive = no such curve, though single readings can be large or run the other way; cell line not stated here;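 note: phosphodiesterase inhibitor Ro 20-1724 added with compounds to block cAMP breakdown; potency is the fitted concentration of half-maximal effect; nearly all actives have a fitted effect of over 60% in size; about a fifth of the inactives were tested at one dose only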
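Cells in DMEM/10% FBS with G418 were pretreated with compounds in DMSO plus […] (300 uM stock) for 30 min at 37C. cAMP was measured by HTRF (cAMP-d2 plus anti-cAMP antibody-K) after 30 min at room temperature.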
* hit, by the source's call; ? = inconclusive; · = not tested or not shown; & = joins results of further samples; [ ] = another dose, or the depositor's remark.

SMILES | gsp antag | Menin-MLL FL inh | Sfp PPTase inh | ClpP mod | TRPV1 PAM | CtBP-E1A blk | gsp ag
CNCc1ccc(OCc2ccccc2)c(OC)c1 | 23.7% | 4.5 | 5.5% | 0.9% | -2.6 | 2.8 | -11.2%
CC(C)NC(=S)n1cc(C(=O)c2cc(Cl)cc(Cl)c2O)cn1 | 0.1% | 7.3 | 1.1% | · | -15.9 | -7.5 | ?
Cc1ccc2[nH]c(=O)c(-c3noc(CC(C)C)n3)cc2c1 | 4.9% | 3.1 | -5.2% | 4.5% | -5.0 | 2.9 | 4.1%
O=C(NCC(=O)N(c1ccccc1)C(C(=O)NC1CCCC1)c1ccncc1)c1cccs1 (stereo not given) | -2.0% | -12.2 | 9.8% | · | 6.0 | 14.2 | 18.6%[15.4 µM]
Cc1[nH]c2ccccc2c1CCN(Cc1cccnc1)C(=S)NC(C)(C)C | -1.0% | 4.4 | 8.2% | -1.2% | -2.4 | · | -33.8%[inhibitor]
COc1cc(CN(C)Cc2cccc3ccccc23)cc([N+](=O)[O-])c1O | -9.2% | 1.6 | -0.1% | -1.0% | -12.8 | · | -14.0%
O=C(CN1C(=O)c2cccc([N+](=O)[O-])c2C1=O)OCC(=O)N1CCCCC1 | 0.4% | · | · | -8.7% | -2.6 | -0.9 | -0.3%[15.4 µM]
CC1CC(C)CN(C(=O)COC(=O)c2ccc3ncsc3c2)C1 (stereo not given) | 5.0% | · | · | 0.1% | 0.0 | · | 1.1%
COc1ccc(NC(=O)CSc2nc3[nH]c(=O)[nH]c(=O)c3s2)cc1OC | 3.7% | 5.9 | -16.2% | · | 6.5 | 0.0 | 5.1%
Cc1cc(C)cc(N(CC(=O)NCc2ccco2)C(=O)CCC(=O)Nc2nccs2)c1 | -5.4% | -4.2 | 16.8% | · | 4.1 | -8.3 | -3.5%[15.4 µM]
CN(C)c1ccc(CNCc2cccnc2)cc1 | -2.3% | · | · | · | · | 1.6 | 4.8%[15.4 µM]
CCOc1cc(CNCc2cccnc2)ccc1OCC(=O)NC(C)(C)C | 6.7% | -1.9 | 23.6% | 0.9% | -11.6 | · | -12.3%
Fc1ccccc1OCCCn1ccnc1 | 8.0% | 1.1 | 6.4% | 0.1% | 2.0 | 9.2 | 3.4%
CCCN1CCN(C(=S)Nc2ccc3nc(N4CCN(CC)CC4)cc(C)c3c2)CC1 | 3.0% | 3.1 | 11.9% | · | 0.4 | -2.7 | 13.9%[15.4 µM]
CCCS(=O)(=O)N1CCN(C(=O)c2cccnc2)CC1 | -3.2% | -1.3 | -2.1% | 0.6% | 15.1 | 4.9 | -16.1%
COc1ccc(C(=O)NCc2ccccc2CN2CCCC2)cc1S(=O)(=O)N1CCOCC1 | -3.0% | · | · | -14.7% | 1.4 | 2.3 | 46.6%[15.4 µM]
O=C(NC(=S)Nc1ccc(CN2CCOCC2)cc1)c1ccccc1[N+](=O)[O-] | 7.4% | -4.2 | -20.4% | -1.4% | -4.8 | 3.2 | 2.4%
Cc1cccc(C)c1NC(=O)CNC(=O)c1c(C)nn(-c2ccccc2)c1C | 2.0% | · | · | -2.3% | 5.2 | -23.3 | -5.7%
N#Cc1c(-c2ccccc2)nc(SCc2nc(N)nc(N3CCCCC3)n2)[nH]c1=O | -10.0% | 2.8 | 13.5% | -2.5% | 7.8 | -2.9 | ?
CCOc1cc(-c2cc(-c3ccc(OC)cc3)nc(N)c2C#N)ccc1O | 6.2% | 17.6 | -15.8% | 43.2% | -12.1 | -7.4 | 0.9%
Cc1noc(C)c1S(=O)(=O)N1CCC(C(=O)NC2CCCc3ccccc32)CC1 (stereo not given) | 9.1% | 2.1 | 13.4% | 1.5% | -2.7 | -3.1 | 0.0%
CC(/C=N/n1c(C2CCCCC2)n[nH]c1=S)=C\c1ccccc1 | -3.9% | -0.1 | -10.1% | -1.9% | -4.3 | -23.4 | 2.2%
COc1cccc(OC(=O)c2cc3ccccc3oc2=O)c1 | 9.1% | 2.5 | 0.4% | · | 0.2 | -1.1 | -12.7%[15.4 µM]
CC(C)(C)C(=O)Nc1nc(=S)ss1 | -4.9% | 1.2 | 22.4µM* | -1.2% | 11.4 | -4.9 | -22.1%
CCN(CC)C(=O)CSc1nc(C)cc(C)n1 | 8.1% | 1.7 | 3.6% | · | 20.6 | -1.3 | 1.6%[15.4 µM]
Cc1ccc(S(=O)(=O)Nc2ccc3[nH]ccc3c2)cc1 | -0.8% | -0.7 | 3.3% | -1.9% | 29.7 | 5.3 | ?
CCN1C(=O)/C(=C\C(=O)c2cccs2)c2cc(Br)ccc21 | -4.4% | 2.9 | 20µM* | · | 6.9 | -1.4 | -20.2%
COC(=O)Nc1nnc(Cc2ccc(Cl)cc2)s1 | 11.8% | -0.4 | 29.4% | -2.1% | -2.3 | 0.6 | -33.6%
CC(=O)c1cccc(NC(=O)CCNC(=O)c2ccccc2Cl)c1 | 7.9% | -1.5 | 6.4% | · | 13.8 | 5.3 | 1.0%
Cc1ccc(S(=O)(=O)NC(CC(=O)NCC2CCCO2)c2ccccc2)cc1 (stereo not given) | 1.6% | -1.6 | 18.3% | -0.2% | 0.3 | 8.2 | -59.1%
COc1ccc(S(=O)(=O)NCc2ccc(C(=O)NCCCN3CC(C)CC(C)C3)cc2)cc1 (stereo not given) | 3.7% | · | 4.8% | -0.8% | -6.8 | -2.6 | 8.7%
CCN1CCN(c2cc(C)c3cc(NC(=S)N4CCCCC4)ccc3n2)CC1 | 1.4% | -0.6 | -9.9% | · | 6.0 | -14.7 | -3.0%[15.4 µM]
Cn1c(SCC(=O)Nc2ccccc2F)nnc1-c1cccs1 | -38.4% | 1.3 | 11.8% | · | -0.2 | 20.5 | 0.1%[15.4 µM]
O=C(NCc1ccc(F)cc1)C1CC(=O)N(C2CCCC2)C1 (stereo not given) | -9.2% | · | · | 1.0% | -9.1 | -7.6 | -11.9%
CC(OC(=O)C1=COCCO1)C(=O)NC1CCCCC1 (stereo not given) | · | · | · | -2.2% | · | 2.9 | -69.0%[inhibitor]
COc1ccccc1NC(=O)C[n+]1ccccc1 | -0.6% | -7.4 | 14.9% | · | -0.2 | -1.4 | 21.2%[15.4 µM]
O=C(COC(=O)c1ccc(S(=O)(=O)NCc2ccco2)cc1)NC1CCCCC1 | 7.8% | 1.8 | -13.9% | -0.6% | -6.2 | 0.8 | -49.9%[inhibitor]
CCOc1cc(N2CCOCC2)c(OCC)cc1NC(=O)Cc1cccc2ccccc12 | -5.8% | 2.0 | -28.6% | -1.5% | -7.2 | ? | -0.2%
Cc1ccc(C2(O)CN(c3ccccc3C)C3=[N+]2CCS3)cc1 (stereo not given) | -7.0% | 1.5 | -17.7% | -1.6% | 26.1 | 2.3 | 13.1%
O=C(CCc1nc(-c2ccc(F)cc2)no1)NCc1ccccc1CN1CCOCC1 | 2.4% | · | · | · | · | 0.1 | -17.6%
COc1cc(S(=O)(=O)N2CCCCC2)ccc1NC(=O)c1ccccc1Cl | -32.5% | -1.1 | 13.5% | -3.6% | 0.3 | -13.8 | -56.9%[inhibitor]
CCOc1ccc(NC(=O)CSc2nc3ccccc3nc2N2CCOCC2)cc1 | -16.8% | 1.2 | -12.2% | 1.1%&5.9% | -3.5 | 9.2 | -19.1%
O=C(O)CC(NC(=O)Nc1ccccc1)c1ccc(OC2CCCC2)cc1 (stereo not given) | -6.9% | -3.8 | -26.3% | · | ? | 7.9 | -14.4%
COc1cccc(CNS(=O)(=O)c2cn(C)cn2)c1 | 6.7% | 1.5 | 0.2% | 14.1µM* | 7.4 | -5.2 | -32.2%[inhibitor]
Cc1cc(N2CCN(c3ccccc3)CC2)nc(N)n1 | 7.6% | 2.5 | 19.9% | -1.8% | -0.7 | -1.4 | -14.3%
Cc1ccc(-n2c(SCC(=O)Nc3ccc4c5c(cccc35)CC4)nc(O)cc2=O)cc1 | -18.7% | 27.1 | -16.4% | -2.2% | 8.3 | 5.6 | 5.5%
COc1cccc(NC(=O)CN(C)C(=O)CSCc2nc3scc(-c4cccs4)c3c(=O)[nH]2)c1 | ? | · | · | -13.6% | 9.5 | ? | 6.5%[15.4 µM]
CCOC(=O)C1CCN(CCCSc2ccc(C)cc2)CC1 | 8.3% | · | · | · | · | 1.1 | -11.9%
O=C(c1ccccc1NS(=O)(=O)c1cccc(C(F)(F)F)c1)N1CCc2ccccc21 | -18.1% | 8.8 | -1.5% | 1.3% | ? | 0.8 | 14.1%
Cc1ccc(C2C3=C(CCCC3=O)Nc3[nH]c(=S)[nH]c(=O)c32)cc1 (stereo not given) | 1.1% | 3.4 | 7.94µM* | 8.6% | 1.3 | 1.0 | -3.3%
COc1ccc(C(=O)CSc2nncn2C)cc1 | 8.8% | 6.4 | -0.7% | -1.0% | -8.2 | 4.3 | -31.7%[inhibitor]
COc1ccccc1C(=O)COC(=O)c1nc(Cl)ccc1Cl | -1.0% | · | · | -11.6% | 0.8 | -2.9 | -9.9%
O=C(O)c1cc2ccccc2cc1Nc1ccccc1 | -17.9% | 8.7 | 2.7% | · | 7.0 | -8.2 | 14.7%[15.4 µM]
COc1cc(CC2COC(=O)C2(O)Cc2ccc(O)c(OC)c2)ccc1O (stereo not given) | -6.2% | 4.2 | -8.7% | -0.6% | 3.0 | 6.1 | -21.2%

Three compounds out of the list above, ordered by the value under Menin-MLL FL inh, lowest first:
| SMILES | Menin-MLL FL inh |
| --- | --- |
| N#Cc1c(-c2ccccc2)nc(SCc2nc(N)nc(N3CCCCC3)n2)[nH]c1=O | 2.8 |
| CCCN1CCN(C(=S)Nc2ccc3nc(N4CCN(CC)CC4)cc(C)c3c2)CC1 | 3.1 |
| Cc1ccc(-n2c(SCC(=O)Nc3ccc4c5c(cccc35)CC4)nc(O)cc2=O)cc1 | 27.1 |
